Sfp inh: inhibitors of Bacillus subtilis Sfp phosphopantetheinyl transferase; 310,000 compounds, 3.5% hits; Q9F4F7; Biochemical Sfp PPTase activity, qHTS; Potency, µM, without a hit: max response, negative = inhibition, actives largely listed as inhibitors; active = well fitted inhibition curve with a large enough effect; inconclusive = small, poorly fitted or top-dose-only effect, or another doubt; inactive = no such curve, though single readings can be large or run the other way;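 note: the enzyme is Sfp with the accession as filed and its product quenches rhodamine fluorescence; potency is the fitted concentration of half-maximal effect; 0% = enzyme reaction without inhibitor and -100% = no enzyme wells; top concentration of the series not given in the record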
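Reaction rates are the 30-min fluorescence difference (ex 525, em 598 nm) in wells containing 15 nM Sfp, 5 uM rhodamine-CoA and 12.5 uM BHQ-2-YbbR at pH 7.6 with 10 mM MgCl2.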
TRPV1 PAM: enhances activation of the human vanilloid receptor TRPV1 | Q8NER1 | TRPV1-expressing cells, Fluo-8 calcium influx, capsaicin EC20 potentiation; host cell line not named in the record; control for the full effect not named in the record | potentiation, % at 8.33 µM | 320,000 compounds, 0.02% hits | AID 540277; active means potentiation above 80%; inconclusive means 30% to 80%; inactive means below 30%; note: 0% is about no effect
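Fluo-8 calcium influx in TRPV1-expressing cells, kinetic read (ex 480/em 520 nm). Compound added and read 3 min for agonist activity, followed by capsaicin at EC20 final and 2 min further read for enhancement.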
D2 potentiator: human D2 receptor positive allosteric modulation. P14416. potentiation, % (test concentration not listed). AID 624464. DiscoveRx D2 beta-arrestin cells, luminescence, 90 min; 100% = 57 uM dopamine signal. 360,000 compounds, 0.23% hits; active = potentiation of 50% or more; inconclusive = 30% to 50%; inactive = 30% or less;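 note: compound concentration not given in the record; tested on top of an EC20 dose of dopamine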
Target sequence (P14416 whole entry, looked up): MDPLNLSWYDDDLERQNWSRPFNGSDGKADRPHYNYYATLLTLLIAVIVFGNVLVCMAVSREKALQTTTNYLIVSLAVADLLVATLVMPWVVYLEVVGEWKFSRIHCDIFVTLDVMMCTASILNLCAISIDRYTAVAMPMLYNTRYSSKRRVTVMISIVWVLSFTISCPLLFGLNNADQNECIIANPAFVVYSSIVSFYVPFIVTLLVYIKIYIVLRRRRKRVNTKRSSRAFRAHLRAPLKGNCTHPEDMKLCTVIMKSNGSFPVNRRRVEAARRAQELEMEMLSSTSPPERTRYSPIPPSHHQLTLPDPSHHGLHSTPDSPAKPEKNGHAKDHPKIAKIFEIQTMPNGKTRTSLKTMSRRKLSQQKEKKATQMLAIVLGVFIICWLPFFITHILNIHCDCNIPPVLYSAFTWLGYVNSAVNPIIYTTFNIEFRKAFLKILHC
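D2 cells co-treated with compound plus 50 nM dopamine (EC20) for 90 min at 37 deg C to detect potentiation. Beta-arrestin recruitment was read as enzyme-fragment luminescence after 1 h at ambient temperature. Full response was set by 57 uM dopamine.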
Six1-Eya2 blk: Six1/Eya2 interaction inhibition; Q15475+O00167; AID 651725; activity change, % (test concentration not listed); AlphaScreen GST-Six1/His-Eya2 binding, biochemical; active compounds read low; control for the full effect not named in the record; 360,000 compounds, 0.56% hits; in the data active = activity change below about -65%; inconclusive = about -30% to -65%; inactive = above about -30%; note: % is set by controls: 0 for no effect and ±100 for the full control effect
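AlphaScreen with GST-Six1 and His-Eya2 (5X mix: 250 nM and 500 nM), glutathione donor and nickel acceptor beads; buffer 50 mM Tris pH 8.0, 300 mM NaCl, 1 mM TCEP; 1 h at 37 C in the dark.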
PINK1 expr mod: modulators of PINK1 expression | PINK1 immunofluorescence, high-content cytometry, 24 h | Potency, µM (doses to about 76.6 µM), for the others: at the top dose activation (PINK1 increase), most hits filed as activators | 410,000 compounds, 0.2% hits | AID 624263; active = well fitted activation curve with a large enough effect; inconclusive = small, poorly fitted or top-dose-only effect; inactive = flat fitted curve, though single readings scatter; cell line not stated here;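 note: potency is the fitted concentration of half-maximal effect; % of control where 0% means no effect; nearly all actives have a fitted effect of over 65% in size; a mitochondrial uncoupler was the plate control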
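Compound titrations (5 concentrations, 24 h) on a stable cell line; DMSO and CCCP controls. Endpoint: fixed-cell PINK1 immunofluorescence with mitochondrial, cell and nuclear markers, scanned by microplate cytometer.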
D2 agonist: human D2 receptor agonism in beta-arrestin assay | 360,000 compounds, 0.084% hits | DiscoveRx PathHunter D2 beta-arrestin, luminescence, 90 min; 100% = 57 uM dopamine signal | activation, % (test concentration not listed); in the data active = activation above about 40%; inconclusive = about 15% to 40%; inactive = below about 15%; note: compound concentration not given in the record; the text of the record calls up to 30% inactive
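DiscoveRx PathHunter D2 beta-arrestin cells (2,100/well) attached overnight, then compound-stimulated 90 min at 37 C in HBSS/10 mM HEPES/0.1% Tween-20 buffer; beta-galactosidase complementation read by luminescence after 1 h at ambient temperature. Dopamine 57 uM final (EC100) as control.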
CtBP-E1A inh: CtBP/E1A binding inhibition | AlphaScreen GST-E1A/His-CtBP binding, 1536-well; active compounds read low; control for the full effect not named in the record | activity change, % (no concentration beside the values) | 340,000 compounds, 0.49% hits | AID 651724; in the data active means activity change below about -65%; inconclusive means about -30% to -65%; inactive means above about -30%; note: % is set by controls: 0 for no effect and ±100 for the full control effect
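Protein mix (5X: 125 nM each GST-E1A, His-CtBP) was incubated with pinned compound 2 h at 37 deg C in dark, in 50 mM Tris pH 8.0 buffer with 300 mM NaCl. Glutathione donor and nickel acceptor beads followed; AlphaScreen signal read after 1 h.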
Starred values were filed as active, the others as inactive; ? = inconclusive; / = no result given; & = joins results of further samples; [ ] = another dose, or the depositor's remark.

SMILES	Sfp inh	TRPV1 PAM	D2 potentiator	Six1-Eya2 blk	PINK1 expr mod	D2 agonist	CtBP-E1A inh
CCOC(=O)N1CCC(NCCNC(=O)c2ccco2)CC1	-29.5%	-1.0	12.4	8.2	1.7%	-16.6	2.6
C[C@H](CO)N1C[C@H](C)[C@@H](CN(C)S(=O)(=O)c2ccc(F)cc2)Oc2ccc(NC(=O)Nc3ccccc3)cc2C1=O	/	/	-12.9	-1.9	1.3%	2.7	0.0
O=C(O)c1ccccc1C(=O)N1N=C(c2ccccc2)CC1c1ccccc1O (centres undefined)	-5.2%	7.1	-9.7	-3.0	-0.2%	-2.5	3.1
CC1CCN(C(=O)CN(c2ccc3c(c2)OCCO3)S(=O)(=O)c2ccccc2)CC1	2.6%	10.6	-8.4	5.0	0.8%	2.2	7.5
COc1cc(C(=O)NCC(=O)OC(C)C(=O)Nc2ncc(Cl)cc2Cl)cc(OC)c1OC (centres undefined)	5.1%	-3.9	-4.4	6.1	0.1%	-5.6	-5.1
COc1ccc(C)cc1NC(=O)CSc1nnc(COc2ccc(Cl)cc2)n1Cc1ccco1	?	1.4	-2.4	-5.6	-0.9%	1.1	-5.2
CCOC(=O)c1c(C)[nH]c(C(=O)N/N=C\c2ccccc2Cl)c1C	5.6%	7.2	-20.1	-13.4	0.9%	1.9	-18.7
COc1ccc(OCC(=O)N/N=C/C(C)=C/c2ccco2)c(Br)c1	-56.3%	12.9	-3.2	-2.3	15.2%	1.2	2.5
COc1ccccc1NS(=O)(=O)c1ccc(C(=O)N2CCCCCC2)cc1	/	/	6.1	-2.4	1.7%	-1.0	1.9
O=S(=O)(Nc1cc(Cl)ccc1N1CCCCC1)c1cccs1	-15.3%	1.9	-12.8	-9.2	-3.9%	-4.6	-8.3
CCN(CC)CCCNc1ncnc2ccccc12	10.0%	-8.2	-12.0	3.8	-0.3%	-1.7	2.4
COC(=O)c1ccc(COC(=O)C23CC4CC(CC(O)(C4)C2)C3)o1	19.6%	1.6	-5.7	0.2	-3.0%	-3.4	-0.3
COC(=O)c1cc(Cl)cc2c(C)c(C3(O)CCCCC3)[nH]c12	12.3%	14.1	1.6	3.5	9.5%	1.3	6.1
COc1ccc(C(=O)Cc2ccc(OC)c(OC)c2)c(OC)c1	8.4%	6.4	11.3	0.1	/	1.0	6.5
COc1ccc(N2CCN(S(=O)(=O)c3ccc(-c4cc(C)no4)s3)CC2)cc1	10.1%	-4.3	-7.1	2.3	-0.4%	-3.3	-2.4
O=c1[nH]cnc2c1ncn2[C@@H]1O[C@H](CO)[C@@H](O)[C@H]1O	-27.0%	-1.0	-8.9	-2.8	1.0%	9.4	6.1
COC(=O)c1cnn2c(C(F)(F)F)cc(-c3ccccc3)nc12	8.9%	-1.8	-25.0	9.3	6.8%[38.3 µM]	-0.5	-0.5
Cc1nonc1OCC(C)(COc1nonc1C)NC(=O)c1ccc(Cl)cc1	18.7%	-3.1	-12.6	6.5	17.6%[38.3 µM]	-3.3	12.9
O=C(O)C1CCN(c2ccc(S(=O)(=O)N3CCOCC3)cc2[N+](=O)[O-])CC1	?	-32.8	7.0	17.2	0.7%	-6.3	2.8
O=C(NCc1cccs1)C1CC(c2ccc(Cl)c(Cl)c2)=NO1 (centres undefined)	20.1%	9.6	-12.2	-7.2	9.2%	-3.7	11.8
CCOC(=O)CNC(=O)CNC(=O)Cn1ccc2ccccc2c1=O	-6.7%	7.7	11.8	-3.2	-2.6%	-0.8	12.1
CO/N=C/C(C#N)=C/c1ccc(OC)c(OC)c1	-1.7%	4.6	-0.1	-7.5	-1.3%	-1.8	-12.5
CCCCCCc1cc2cc(C(=O)NC)c(=N)oc2cc1O	-4.0%	-7.7	-4.2	4.3	25.3%	1.1	2.6
CN1C(=O)NC(c2ccccc2Cl)C2=C1CC(C)(C)CC2=O (centres undefined)	4.7%	3.2	-1.1	1.0	2.3%	-0.1	6.0
COc1ccc(-c2nc3cc(NC(=O)Cc4ccc(OC)c(OC)c4)ccc3o2)cc1	4.5%	-8.8	20.9	-9.7	5.2%	4.6	-2.7
COC(=O)c1cc(CNC(=O)CCCSc2ccccc2)ccc1OC	16.0%	23.1	0.7	7.1	2.5%	-4.2	-10.0
CSc1ncccc1C(=O)NCCc1ccccc1F	14.6%	-2.1	-1.1	9.7	0.5%	-3.0	2.3
COc1ccc(NC(=O)COC(=O)C23CC4CC(CC(NC(C)=O)(C4)C2)C3)cc1S(=O)(=O)N1CCOCC1	/	/	-6.4	-6.7	3.4%	-1.3	3.0
COC(=O)c1cc(=O)n2c(sc3ccccc32)c1C#N	7.4%	4.5	-10.6	6.2	1.1%	-2.7	1.7
O=C(CCN1C(=O)[C@@H]2Cc3ccccc3CN2C1=O)NCc1ccccc1	7.3%	3.4	-6.2	1.9	-1.2%	1.5	/
Cc1ccc(S(=O)(=O)N2CCC(=O)N(CCOCc3ccccc3)CC2)cc1	-3.5%	-14.5	-10.2	-5.5	-0.1%	-6.6	/
CCOc1ccc(NC(=S)Nc2ccc3nsnc3c2)cc1	?	-2.8	-4.0	9.5	-2.5%	5.3	?
COc1ccc(CNC(=O)CCOc2ccc(C(C)(C)C)cc2)cc1	5.5%	13.8	15.6	0.6	4.4%	-0.9	14.4
CCCC1(C)SC(NC(C)=O)=NN1C(C)=O (centres undefined)	12.1%	-2.8	1.7	3.1	-0.2%	0.2	1.0
O=C(CSc1nc2ccccc2s1)Nc1ccc(N2CCOCC2)c(Cl)c1	-11.3%	9.4	-6.1	-8.6	9.2%	2.4	0.5
COc1ccc2oc(=O)c(C(=O)NCc3cccnc3)cc2c1	10.1%	-4.7	4.7	-1.3	-0.7%	-2.9	-0.4
O=C(OCC(=O)N1CCc2ccccc2C1)c1cc(=O)[nH]c2ccccc12	5.6%	13.4	-3.5	-0.3	0.0%	-2.6	-1.2
O=S(=O)(c1ccc(Br)s1)N1CCNCC1	11.1%	-8.3	-11.0	1.1	0.4%	4.9	-23.3
COC(=O)C1=C(C(=O)OC)[C@@H]2N(C)c3ccccc3[C@@]23C[C@@H](C(=O)OC)N(C(=O)C2CCC2)C3=N1	9.9%&-2.6%	-40.6	-2.0	-24.4	1.1%	-1.5	/
CCN1CCN(C(c2cccs2)C(C)NC(=O)c2c(F)cccc2F)CC1 (centres undefined)	12.4%	0.4	-1.2	7.1	2.4%[38.3 µM]	-1.4	-0.3
COc1ccc(NC(=O)COc2nsnc2N2CCOCC2)c(OC)c1	1.4%	-7.0	-7.1	3.7	-0.6%	2.4	-17.7
CC(C)Cn1c(N)c(C(=O)COC(=O)c2ccc(O)cc2)c(=O)n(C)c1=O	31.6%[activator]	-2.8	3.2	1.6	-1.6%	-0.8	/
Cc1ccc2[nH]c(=O)c(CN(C)S(=O)(=O)c3cccc4nonc34)cc2c1	20.1%	-13.5	-10.3	-3.8	6.0%	-4.1	0.1
COc1ccc2c(=O)c3c(=O)n(Cc4ccccc4)c(C(C)C)nc3oc2c1	/	/	-1.4	3.0	4.9%	-2.5	4.8
CC(C)Oc1cc(F)ccc1-c1cc(C(=O)NCc2ccccn2)[nH]n1	/	/	-8.7	-8.5	0.7%	-3.6	-3.1
Cc1cc(C)nc(N/N=C/c2cccc3ccccc23)n1	2.1%	17.7	2.7	19.4	2.1%	-3.8	13.6
COc1ccc2c(c1)CC/C(=C\Nc1ccc3c(c1)OCO3)C2=O	22.4µM*	5.4	1.8	-10.3	-1.1%[38.3 µM]	3.6	1.5
CC(=O)NCCc1nc2cc(NC(=O)c3ccc(F)cc3)ccc2n1C	-2.8%	-0.1	-2.3	-16.5	-1.0%	-4.9	-4.4
O=C(CSc1nnc(-c2ccccc2)n1Cc1ccccc1)NC1CC1	18.6%	6.5	-8.1	2.7	2.3%[38.3 µM]	-1.1	6.5
COc1cc(C(=O)NC(=S)Nc2ccc(N3CCCC3)cc2)cc(OC)c1OC	?	-7.1	8.4	-11.5	17.4%	2.6	-11.6
Remaining list, next part.
SMILES	Sfp inh	TRPV1 PAM	D2 potentiator	Six1-Eya2 blk	PINK1 expr mod	D2 agonist	CtBP-E1A inh
C/C(=N\NC(=O)Cn1nc(C)cc1C)c1ccc([N+](=O)[O-])cc1	14.1%	11.6	-18.3	-6.7	1.1%	-5.4	/
Cc1cnc(CN2CCc3c([nH]c4ccccc34)C2CC(C)C)[nH]1 (centres undefined)	-4.0%	4.5	-4.7	-23.1	3.3%	-5.5	-17.8
COc1ccccc1CNC(=O)C(C)c1ccc([N+](=O)[O-])cc1 (centres undefined)	10.9%	9.1	-1.9	3.5	1.5%	-0.2	5.0
CCn1c(SCc2cccnc2)nc2c1c(=O)n(C)c(=O)n2C	10.3%	-16.7	-0.4	-2.0	0.1%[38.3 µM]	1.5	-3.0
N#Cc1c2n(c3c(=O)n(CC(=O)c4ccc(Br)cc4)cnc13)CCCC2	12.5%	1.6	7.9	-8.9	0.3%	-3.1	6.7
CC(C)CC(=O)/C(=C\c1ccc(Cl)cc1Cl)n1cncn1	31.6µM*	-8.4	-8.5	-3.1	-1.5%	-3.1	/
Cc1ccc(C(=O)N[C@H](C(=O)OCc2cc(=O)n3c(n2)sc2ccccc23)C(C)C)cc1	-5.9%	18.6	-11.3	-12.1	1.8%	-0.6	1.3
O=C1COc2ccc(S(=O)(=O)CCC(=O)NC3CCCCC3)cc2N1	24.0%	-4.6	-6.1	7.0	0.8%	-5.7	-0.8

Compound profiles, as listed above:
`O=C(O)c1ccccc1C(=O)N1N=C(c2ccccc2)CC1c1ccccc1O` (centres undefined) across the screens: Sfp inh = -5.2%; TRPV1 PAM = 7.1; D2 potentiator = -9.7; Six1-Eya2 blk = -3.0; PINK1 expr mod = -0.2%; D2 agonist = -2.5; CtBP-E1A inh = 3.1
`CSc1ncccc1C(=O)NCCc1ccccc1F` across the screens: Sfp inh = 14.6%; TRPV1 PAM = -2.1; D2 potentiator = -1.1; Six1-Eya2 blk = 9.7; PINK1 expr mod = 0.5%; D2 agonist = -3.0; CtBP-E1A inh = 2.3

Not a hit list; 3.7% or so of the library scored in one or more.
